GIV-Gai inh: GIV-Galpha-i interaction inhibition. AID 1224905. percent of control (FP), % (concentration not given with the values). Galpha-i3/FITC-GIV peptide fluorescence polarization, 90 min; stronger effect = lower value; scaled: aluminum fluoride 0%, vehicle 100%. 210,000 compounds, 0.42% hits. P08753;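 active = replicate mean at 85% of control or lower, very high polarization wells dropped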;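 note: wells of about 15 µL received 100 nL stock; the first replicate is given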
Target sequence (P08753 whole entry, looked up): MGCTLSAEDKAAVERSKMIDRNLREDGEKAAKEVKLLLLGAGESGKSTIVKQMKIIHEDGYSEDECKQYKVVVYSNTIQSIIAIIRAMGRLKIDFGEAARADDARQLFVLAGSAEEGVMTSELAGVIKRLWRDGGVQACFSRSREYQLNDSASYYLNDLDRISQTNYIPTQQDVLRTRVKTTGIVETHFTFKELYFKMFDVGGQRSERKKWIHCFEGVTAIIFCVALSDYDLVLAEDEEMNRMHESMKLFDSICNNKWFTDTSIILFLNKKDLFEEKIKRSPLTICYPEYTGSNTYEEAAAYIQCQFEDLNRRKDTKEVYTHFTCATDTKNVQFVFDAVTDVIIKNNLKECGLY
Sa growth inh: blocks Staphylococcus aureus growth; 170,000 compounds, 0.53% hits; S. aureus RN4220 growth, OD600, 20 h, 42 °C; stronger effect = lower value; relative growth, % (test concentration not listed);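 active = growth at 42 °C up to 50% and 20 or more points under that at 30 °C, or under 10% at both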;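 note: 300 nL library stock went into each well; scaled to the means of positive and negative controls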
HCMV UL50-53 inh: cytomegalovirus nuclear egress complex inhibition; HTRF UL50-UL53 interaction, normalized percent inhibition; inhibition, % (no concentration beside the values); 190,000 compounds, 0.15% hits; AID 1918969;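 active = both replicates at 50% or more, plus weaker picks with an unusually low signal ratio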;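 note: stock transfer was 100 nL into about 20 µL; 0% = negative control wells and 100% = wells with untagged competitor protein; inactives centre near -12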
Sa growth inh second temp: also measured in Sa growth inh; calls as there; relative growth, %; measured here: growth at 30 °C;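 optical density after 20 h as mean of two plates; 100% = untreated growth and lower means inhibition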
Active calls of the source: *; nt = no result given; & = joins results of further samples.

molecule	GIV-Gai inh	Sa growth inh	Sa growth inh second temp	HCMV UL50-53 inh
O=C(NCc1ccc(F)cc1)C(=O)Nc1ccc2nc3n(c(=O)c2c1)CCCCC3	101.5	93.8	85.1	-20.3
COc1cc(-c2nc3ccccc3c(=O)n2NC(=O)c2ccc(Cl)c([N+](=O)[O-])c2)cc(OC)c1OC	112.9	nt	nt	-41.3
O=C(c1ccccc1)c1ccc2nc(N3CCN(c4ccc(F)cc4)CC3)c3nncn3c2c1	103.2	95.4	79.9	-8.9
Cn1nccc1NC(=O)CC(C)(C)CC(=O)O	107.2	113.0	85.0	2.3
CCNS(=O)(=O)c1cc(-c2ccno2)oc1C	111.1	nt	nt	-23.0
CC(C)(C#N)N1CCN(C(c2ccccc2)c2ccccc2)CC1	100.1	nt	nt	-11.1
O=C(CN1C(=O)CCCc2ccccc21)NCCCc1ccccc1	108.3	nt	nt	-4.2
O=C(O)C1CC(=O)N(c2cccc3ccccc23)C1 (stereo not given)	nt	94.6	91.0	-16.3
NC(=O)c1ccccc1NC(=O)CSc1ccc2ccccc2c1	nt	93.8	99.0	-18.9
COC(=O)C1=CN(C2CC2)C=C(C(=O)OC)C1c1cccc(OC)c1	98.3	94.4	97.1	-19.5
COc1ccc(NC(=O)C2(c3ccc(OC)cc3)CCOCC2)cc1	106.4	109.8	79.2	-10.5
O=C(Nc1sc2c(c1C(=O)NCC1CCCO1)CCC2)c1cc(-c2ccc(Cl)cc2)on1 (stereo not given)	98.8	nt	nt	-13.9
Cc1ccccc1C(=O)Nc1ccc2nc(N3CCCN(C)CC3)cc(C(=O)O)c2c1	102.7	nt	nt	-50.7
Cc1ccc2oc(C(=O)O)cc(=O)c2c1	108.6	101.5	89.9	-11.8
Cc1cccn2c(=O)cc(COc3ccc(NC(=O)COc4ccc(F)cc4)cc3)nc12	96.2	80.0	91.3	nt
CC(=O)N1CCc2cc(S(=O)(=O)N=S(C)(=O)c3ccc(C)cc3)ccc21 (stereo not given)	103.3	105.7	96.8	8.1
O=C(Nc1ccccc1)Nc1cccc(-c2noc(-c3cc4ccccc4[nH]3)n2)c1	105.7	nt	nt	-23.3
COc1cccc(NC(=O)Cn2c(=O)n(CCc3cccc(C)c3)c(=O)c3ccccc32)c1	109.5	102.0	90.3	-10.0
CCOC(=O)C1CCN(C(=O)c2ccc3c(=O)n4nc(Nc5ccccc5)sc4nc3c2)CC1	106.0	91.1	92.3	nt
Cc1ccc(CNc2oc(-c3ccc(COc4ccc(C)cc4)o3)nc2C#N)cc1	101.1	99.5	88.8	-14.4
O=C(CN1CCN(c2ccccn2)CC1)N(c1ccccc1)c1ccc2ccccc2c1	96.3	120.1	70.5	-6.0
N#Cc1ccc(COC(=O)c2cnc3sccn3c2=O)cc1	nt	89.9	93.6	-9.0
COc1ccc(C(=O)Nc2cc(NC(=O)c3ccco3)ccc2OC)cc1Cl	103.8	97.8	91.6	-15.3
O=C(NC1CCCC1)c1ncoc1-c1ccc2ccccc2c1	97.2	111.0	86.8	-43.0
Cc1cccc(-c2c3c(=O)n(C)c(=O)n(C)c3c3c(C)nc4ccccc4n23)c1	106.0	102.2	104.6	-22.1
CCCC(C(=O)OCCN(CC)CC)(c1ccccc1)c1ccccc1	101.7	96.4	92.0	-31.9&-25.7&-17.8
COc1ccc(-n2c(SCC(=O)N3CCCc4ccccc43)nc3c(c2=O)SCC3)cc1OC	101.0	105.0	98.3	-24.9
O=C(CSc1nnc(-c2ccc(C(F)(F)F)cn2)o1)Nc1ccccc1	103.7	86.7	95.8	-5.3
COc1ccc(-c2nn3c(=O)cc(CN4CCN(C(=O)/C=C/c5ccccc5)CC4)nc3s2)cc1	99.1	87.8	87.0	nt
O=C(CCC1CCCC1)OCC(=O)N1CCOCC1	nt	85.5	99.8	-2.3
COc1cccc(-c2nnc3n2CC(C)S3)c1 (stereo not given)	98.5	101.6	89.7	-2.5
Cc1cc(C)n(-c2nc3ccccc3nc2NCCc2ccccc2)n1	107.4&101.2	66.0	98.8	-7.3
CC(=O)N1CN(C2CCCC2)Cc2c1sc1c2CCCC1	nt	85.6	88.3	-38.0
CC(=O)N1N=C(c2ccncc2)OC1c1cn(-c2ccccc2)nc1-c1cccs1 (stereo not given)	107.0	101.5	90.7	-1.5
Cc1ccc(C(=O)Nc2cccc(C(=O)O)c2)cc1	97.0	111.1	91.0	-10.0
Cc1cccc(C(=O)Nc2cccc(C(=O)OCc3cc(=O)n4nc(C5CC5)sc4n3)c2)c1	103.8	112.2	77.1	nt
COC(=O)c1c(C)oc2ccc(O)cc12	98.6	104.6	85.3	-2.2
O=C(NCCCO)Nc1c[nH]c2ccccc2c1=O	103.1	110.4	90.2	-33.9
CCCCn1c(=O)[nH]c2nc3cc(N=Cc4c(O)n(C)c(=O)n(C)c4=O)ccc3nc2c1=O	110.8	96.5	97.5	2.8
CCCNC(=O)NCCc1nc2cccnc2n1-c1ccccc1	108.3	nt	nt	-17.2
COc1cc(C(=O)O)cc(OC)c1OCc1cc(C(=O)O)oc1C	99.1	98.3	97.2	0.2
CCOC(=O)C1CCCN(CCC(=O)Nc2ccc(OC)cc2OC)C1 (stereo not given)	104.7	101.9	101.8	20.0
CCn1c(C(=O)N2CCCC2)cc2c(=O)oc3ccccc3c21	98.9	nt	nt	-8.8
COc1ccc(-c2cc(-c3ccccc3)nc(SCC(=O)Nc3ccccc3C)c2C#N)cc1	99.6	94.7	95.2	-19.4
CCc1ccc(NCc2cc3ccc(OC)cc3n(CC(=O)Nc3ccccc3C)c2=O)cc1	93.6	64.7	80.0	nt

(further entries)
Order of values – GIV-Gai inh, Sa growth inh, Sa growth inh second temp, HCMV UL50-53 inh
> CCOc1ccc(S(=O)(=O)Nc2cc(C(=O)O)cnc2N2CCC(Cc3ccccc3)CC2)cc1
 : 104.6, nt, nt, -24.1
> Cc1[nH]c(C(=O)Nc2cccc(Br)c2)c(C)c1S(=O)(=O)N1CCCC1
 : 103.6, nt, nt, -24.6
> CCn1nc(C)c(CCN(C)C(=O)Nc2ccc(C)c(Cl)c2)c1C
 : 105.1, 77.1, 92.0, nt
> CCOC(=O)c1cc2c(=O)n3ccccc3nc2n(CC(C)C)c1=NC(=O)c1cc2ccccc2o1
 : 106.3, 98.2, 92.5, -11.7
> O=C(Cn1c(=O)oc2ccccc21)Nc1ccccc1Cl
 : nt, 127.8, 81.8, -7.0
> CCOC(=O)C1CCCN(Cc2cn3c(-c4cccc(Br)c4)nnc3s2)C1 (stereo not given)
 : 97.2&97.9, 102.0&100.1, 87.4&83.6, -9.3&-22.9
> C/C(Cc1ncn(-c2cc(C)on2)n1)=N\O
 : 99.2, 119.4, 92.9, -33.7
> COc1ccc(-c2nc(-c3cccc(C)c3)no2)cc1OC
 : 106.5, 112.3, 104.8, 6.7
> CC(C)Nc1nc(NC(C)C)nc(Sc2nn(C)c(=S)s2)n1
 : 108.8, 94.5, 76.5, nt
> CNc1ccc(C(O)(C(F)(F)F)C(F)(F)F)cc1
 : 103.9, 129.2, 101.4, 4.0
> COc1ccccc1N(CN1CCCC1=O)C(=O)COc1ccc(Cl)cc1Cl
 : 102.0, 89.1, 84.4, -36.9
> COc1ccc(C2=C(Nc3ccc(Br)c(C)c3)c3ccccc3C2=O)cc1
 : 101.7, 106.3, 91.8, -9.2
> Cc1nc(-c2cccc(C(=O)NCc3cccnc3)c2)no1
 : 101.5, nt, nt, -26.8
> CCCN1C(=O)CC(c2ccccc2)=Nc2ccccc21
 : 100.6, nt, nt, -47.7
> CNCc1cccs1
 : nt, 95.0, 94.2, 5.2
> CC(=O)OC(C#N)[C@H]1O[C@@H]2OC(C)(C)O[C@@H]2[C@H]1OC(C)=O (stereo not given in full)
 : 103.5, 85.9, 86.6, -40.9
> O=C(O)c1ccc2c(c1)ncn2-c1ccc(F)c(F)c1
 : 102.0, 97.6, 89.8, -9.9
> O=S(=O)(c1ccccc1)c1nc(N(CCO)c2ccccc2)sc1Cl
 : nt, 115.3, 88.1, -17.6
> Cc1c(CCC(=O)O)c(=O)[nH]c2ccccc12
 : 103.5, 109.5, 102.7, 4.4
> CCc1ccc(NC(=O)C2CCCN(c3nnc(C)c4c(C)n(-c5ccccc5)nc34)C2)cc1 (stereo not given)
 : 107.3, 104.8, 88.1, nt
> Cc1cc(CN)c2[nH]c(C)c(C)c2c1
 : 104.1, 100.5, 86.9, -9.7
> CCCCN(CC)CCCNC(=O)c1cc2c(=O)[nH]c3ccccc3c2n1C
 : 97.8, 110.0, 99.2, -10.2
> CN1C(=O)c2cc(C(=O)NCCc3ccc(Cl)cc3)nn2CC1(C)C(=O)NC1CCCC1 (stereo not given)
 : 103.7, nt, nt, 8.4
> COc1ccc(CCNC(=O)c2c(O)nc3c(C)cccn3c2=O)cc1
 : 99.2, 96.1, 90.8, -6.9
> Cc1ccc(C2Sc3ccccc3NC3=C2C(=O)c2ccccc23)cc1 (stereo not given)
 : 102.1, nt, nt, 10.5
> COC(=O)c1nc2ccccc2nc1N1CCN(c2ccc(OC)cc2)CC1
 : 97.4, nt, nt, -50.8
> CCOC(=O)c1cc(C)n(CC2CCC(C(=O)Nc3ccccc3OC)CC2)c1C (stereo not given)
 : 107.2&104.7, 111.7, 50.2, -6.2
> O=C(c1ccc(Cl)c(S(=O)(=O)N2CCOCC2)c1)N1CCN(c2ccccc2F)CC1
 : 100.4, 110.8, 88.0, -20.6
> CCCCc1c(C)nc(SCc2ccccc2)[nH]c1=O
 : 95.2, 101.9, 96.4, nt
> CC(CN(C)C)OC(=O)c1ccc2c(c1)OCO2 (stereo not given)
 : 102.6, 113.6, 96.4, 19.5
> O=S(=O)(NCc1cccn1Cc1ccccc1)c1ccccc1
 : 106.7, nt, nt, -30.3
> OCC(O)C1OC(c2ccccc2)OCC1O (stereo not given)
 : nt, 129.5, 91.0, 1.0
> O=C1CCc2cc(-c3csc(/N=C/NO)n3)ccc2N1
 : 100.8, 105.6, 87.2, -3.4
> O=S(=O)(Cc1ccc(Cl)cc1)c1cccs1
 : 99.4, 100.5, 79.1, 3.7
> Cc1nnc(SCC(=O)Nc2cccc(C(F)(F)F)c2)o1
 : 110.7, 99.5, 99.8, -2.2
> Cc1cccc(CSc2nc3cccnc3n2Cc2ccccc2F)c1
 : 101.1, nt, nt, -21.8
> N#C/C(=C/C=C/c1ccco1)c1nc2ccccc2[nH]1
 : 172.2, 77.8, 34.6, -21.4
> COc1ccc(-c2cc(-c3ccc(Br)cc3)[nH]c(=O)n2)cc1
 : nt, 114.3, 93.0, -5.3
> O=C(C1CCCC1)N1CC(OCc2ccc(F)cc2Cl)C1
 : 96.8, nt, nt, -13.7
> CC(C)(C)OC(=O)NCc1cccs1
 : 104.2, 75.3, 98.7, 7.2

Sorted by number of heavy atoms (highest first): part of the list above
Order of values – GIV-Gai inh, Sa growth inh, Sa growth inh second temp, HCMV UL50-53 inh
> COc1cc(-c2nc3ccccc3c(=O)n2NC(=O)c2ccc(Cl)c([N+](=O)[O-])c2)cc(OC)c1OC
 : 112.9, nt, nt, -41.3
> CCOC(=O)C1CCN(C(=O)c2ccc3c(=O)n4nc(Nc5ccccc5)sc4nc3c2)CC1
 : 106.0, 91.1, 92.3, nt
> N#Cc1ccc(COC(=O)c2cnc3sccn3c2=O)cc1
 : nt, 89.9, 93.6, -9.0

Later entries.
Order of values – GIV-Gai inh, Sa growth inh, Sa growth inh second temp, HCMV UL50-53 inh
> CCc1cccc(C)c1NC(=O)C1CCN(c2nnc(C)c3c(C)n(-c4ccccc4)nc23)CC1
 : 101.5, 93.3, 94.5, nt
> CC1CCN(C(=O)CSc2c3c(nc4ccccc24)CCC3)CC1
 : 102.5, nt, nt, 4.5
> C/C(N)=C(/C#N)C(=O)COc1ncnc2c1cnn2-c1ccccc1
 : nt, 84.3, 102.8, 2.0
> CCCc1nnc(NC(=O)c2oc3cc(C)c(C)cc3c2C)s1
 : 103.0, 95.3, 88.8, -32.4
> Cc1cc(C)n(CC(=O)Nc2ccc(F)cc2Cl)c(=O)c1S(=O)(=O)c1ccccc1
 : 104.4, nt, nt, 12.2

Entries shown so far that have fluorine, in the order listed:
Order of values – GIV-Gai inh, Sa growth inh, Sa growth inh second temp, HCMV UL50-53 inh
> O=C(NCc1ccc(F)cc1)C(=O)Nc1ccc2nc3n(c(=O)c2c1)CCCCC3
 : 101.5, 93.8, 85.1, -20.3
> O=C(c1ccccc1)c1ccc2nc(N3CCN(c4ccc(F)cc4)CC3)c3nncn3c2c1
 : 103.2, 95.4, 79.9, -8.9
> Cc1cccn2c(=O)cc(COc3ccc(NC(=O)COc4ccc(F)cc4)cc3)nc12
 : 96.2, 80.0, 91.3, nt
> O=C(CSc1nnc(-c2ccc(C(F)(F)F)cn2)o1)Nc1ccccc1
 : 103.7, 86.7, 95.8, -5.3
> CNc1ccc(C(O)(C(F)(F)F)C(F)(F)F)cc1
 : 103.9, 129.2, 101.4, 4.0
> O=C(O)c1ccc2c(c1)ncn2-c1ccc(F)c(F)c1
 : 102.0, 97.6, 89.8, -9.9
> O=C(c1ccc(Cl)c(S(=O)(=O)N2CCOCC2)c1)N1CCN(c2ccccc2F)CC1
 : 100.4, 110.8, 88.0, -20.6
> Cc1nnc(SCC(=O)Nc2cccc(C(F)(F)F)c2)o1
 : 110.7, 99.5, 99.8, -2.2
> Cc1cccc(CSc2nc3cccnc3n2Cc2ccccc2F)c1
 : 101.1, nt, nt, -21.8
> O=C(C1CCCC1)N1CC(OCc2ccc(F)cc2Cl)C1
 : 96.8, nt, nt, -13.7
> Cc1cc(C)n(CC(=O)Nc2ccc(F)cc2Cl)c(=O)c1S(=O)(=O)c1ccccc1
 : 104.4, nt, nt, 12.2

High-throughput results (PubChem)

Not a hit list. About 0.85% of those tested had a hit in this group.
